FGF22 binding – binders of recombinant human FGF22 by thermal shift | Q9HCT0 | hit rate 1.5% among 340,000 | SYPRO orange fluorescence; percent of sucrose octasulfate shift, DMSO zero | calls only at 9.99 µM;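 active means melting point raised past a set limit in the mean and every replicate; inconclusive means no clear call; three in four hits are not shown here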
Target sequence (Q9HCT0 whole entry, looked up): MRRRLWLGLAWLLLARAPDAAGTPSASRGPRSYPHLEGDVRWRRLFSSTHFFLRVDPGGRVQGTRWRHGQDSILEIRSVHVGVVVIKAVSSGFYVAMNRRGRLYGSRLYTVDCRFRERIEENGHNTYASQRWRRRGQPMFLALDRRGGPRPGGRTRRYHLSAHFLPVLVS
T cruzi inh – blocks replication of Trypanosoma cruzi; hit rate 1.4% among 300,000; T. cruzi beta-gal in NIH3T3, luminescence, 90 h; inhibition, % (concentration not given with the values);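 active means mean inhibition across valid replicates above about 55%, limit read from the data; inconclusive means mean below that limit but half or more replicates reach it; inactive means mean below it, under half of replicates reach it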;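 further: signal also drops with host cell toxicity which is not excluded here; 0% = plate median of DMSO wells and 100% = zero luminescence signal; higher percent means less beta-gal luminescence so fewer parasites; stock transfer was 50 nL into about 50 µL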
Calb FLC – affects C. albicans growth with fluconazole; growth inhibition, % (test concentration not listed); AID 1979; C. albicans CaCi-2 (fluconazole-resistant clinical isolate) + fluconazole, Alamar Blue growth, 48 h; hit rate 0.57% among 300,000;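 active means most replicates above 75%; inconclusive means exactly half above 75%; inactive means most below 75%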;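 further: all wells also contain fluconazole at 8 µg/ml as a sub-toxic cotreatment; 0% = median of DMSO wells and 100% = median of geldanamycin control wells; wells of about 8 µL received 7.5 nL stock; the first replicate is given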
rRNA inh HTS – inhibits bacterial ribosomal RNA function over humanized ribosomes; GFP signal change (wild-type ribosome), % (no concentration beside the values); E. coli WT GFP vs humanized-ribosome RFP mutants, fluorescence, 24 h; active compounds read low; DMSO median 0, no signal -100; hit rate 1.6% among 350,000;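 active means significant combined selectivity score with lowered wild-type GFP, culture density cut under 30%, mutant RFP and density less affected; inactive means any of these conditions unmet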; further: one replicate is shown; some compounds called inactive have numbers as strong as hits
Beta cell apopt – beta cell apoptosis inhibition. INS-1E cytokine-induced death, ATP luminescence, 48 h; percent of positive-control rescue, neutral wells zero. protection from apoptosis, % (no concentration beside the values). hit rate 0.8% among 300,000;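 active means all replicates at 75% or more, or half of them and the mean; inconclusive means half reach 75% but not the mean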;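 further: 0% = cytokine-treated negative control wells and 100% = positive control rescue; higher means more ATP so stronger rescue from cytokine killing; wells of about 40 µL received 100 nL stock; the first replicate is given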
AF4-AF9 inh – inhibitors of human MLL-AF4/AF9 interaction. P42568. AlphaScreen, biotin-AF4 peptide binding to FLAG-AF9. inhibition, % at 10 µM. hit rate 0.47% among 350,000;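 active means every replicate reaching a set inhibition limit, whatever the replicate mean, cut at about 25% in these data; inconclusive means mean inhibition reaches that limit but some replicates miss it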;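 further: 0% = plate neutral control median and 100% = total signal loss; the record names both 10 and 1 µM as test concentration; the first replicate is given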
Target sequence (P42568 whole entry, looked up): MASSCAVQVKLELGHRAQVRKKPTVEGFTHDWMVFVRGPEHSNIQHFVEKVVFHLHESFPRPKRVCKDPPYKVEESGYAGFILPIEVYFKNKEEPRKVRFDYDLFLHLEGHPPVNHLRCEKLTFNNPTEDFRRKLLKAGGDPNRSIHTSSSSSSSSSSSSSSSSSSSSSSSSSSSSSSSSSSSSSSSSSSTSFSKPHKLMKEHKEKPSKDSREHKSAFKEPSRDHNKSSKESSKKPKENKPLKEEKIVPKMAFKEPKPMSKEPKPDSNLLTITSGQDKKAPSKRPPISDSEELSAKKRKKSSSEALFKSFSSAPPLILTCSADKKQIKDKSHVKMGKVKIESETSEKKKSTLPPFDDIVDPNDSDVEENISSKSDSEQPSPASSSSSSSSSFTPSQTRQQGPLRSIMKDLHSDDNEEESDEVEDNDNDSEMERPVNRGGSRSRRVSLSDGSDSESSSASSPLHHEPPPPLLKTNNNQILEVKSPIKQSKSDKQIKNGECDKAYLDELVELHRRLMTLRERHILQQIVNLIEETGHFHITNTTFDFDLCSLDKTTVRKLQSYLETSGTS
ALR inh – blocks human ALR sulfhydryl oxidase activity | purified ALR, DTT oxidation, H2O2 HRP-luminol luminescence | inhibition, % (concentration not given with the values) | hit rate 3.8% among 290,000 | AID 485317;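 active means mean and each replicate at 75% or more; inconclusive means only one of the two met; inactive means neither met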;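 further: stock transfer was 7.5 nL into about 7.5 µL; 0% = neutral wells and 100% = wells with inactivated enzyme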
Target sequence (P55789 whole entry, looked up): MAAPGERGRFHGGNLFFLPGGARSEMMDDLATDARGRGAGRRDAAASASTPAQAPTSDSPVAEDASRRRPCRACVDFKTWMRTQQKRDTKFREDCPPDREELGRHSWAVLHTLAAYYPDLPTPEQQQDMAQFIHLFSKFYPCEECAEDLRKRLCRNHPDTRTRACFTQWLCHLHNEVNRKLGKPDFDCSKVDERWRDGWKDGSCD
RanGTP-Imp inh – inhibitors of RanGTP-importin-beta interaction, primary screen, biochemical, FRET, CFP-Ran, YFP-importin-beta, homogeneous | AID 2216 | inhibition, % (concentration not given with the values) | hit rate 1.1% among 300,000 | cell-free CFP-Ran/YFP-importin-beta FRET ratio;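 active means most replicates above 15%; inconclusive means exactly half above 15%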;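 further: 0% = DMSO wells and 100% = Ran loaded with GDP instead of GTP; wells of about 40 µL received 100 nL stock; the first replicate is given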
rRNA inh HTS OD600 – also measured in rRNA inh HTS; calls as there; OD600 change, %; measured here: OD600 growth;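 optical density of the mix in the first replicate; 0 = DMSO median and -100 = no signal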
rRNA inh HTS RFP – second read-out of rRNA inh HTS, no call of its own (marks repeat the call); RFP signal change, %; measured here: RFP humanized mutant strains;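 first replicate; 0 = DMSO median and -100 = no signal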
Active calls of the source: *; i = inactive; ? = inconclusive; . = not tested or not shown. Not all compounds are listed (hit frequency here may not be typical).

SMILES	FGF22 binding	T cruzi inh	Calb FLC	rRNA inh HTS	rRNA inh HTS OD600	rRNA inh HTS RFP	Beta cell apopt	AF4-AF9 inh	ALR inh	RanGTP-Imp inh
Cc1ccc(CNC(=O)CN2C(=O)C3(OCCCO3)c3ccccc32)cc1	i	7	1	-9	-6	-2.4	4	0.2	-10	-1.3
Cc1ccccc1CCNC(=O)C1CCCN(c2cnccn2)C1 (stereo not given)	i	9	-2	1	4	-4.4	.	2.6	-4	-0.4
O=C(c1cc2ccccc2oc1=O)N(Cc1ccccc1)CC1CCCO1 (stereo not given)	.	-7	-10	.	.	.	-6	.	-2	-1.1
CCOC(=O)c1cnc2c(C)c(Cl)ccc2c1N1CCN(CC)CC1	i	14	18	-11	-13	0.6	3	13	-8	-2.4
Cn1cc2cc(NC(N)=S)ccc2n1	i	-5	0	13	12	0.0	-2	-0.4	.	-1.3
COc1cccc(OC)c1CN(C)C(=O)c1cnccc1C(F)(F)F	i	9	-5	.	.	.	-1	0.0	-20	0.7
COc1cccc(N2CC(C)Cn3c2nc2c3c(=O)[nH]c(=O)n2C)c1 (stereo not given)	i	-8	-1	4	5	0.0	-19	0.2	8	3.1
CCOc1ccc(NC(=S)NC(=O)/C=C/c2ccc(OC)c(OC)c2)c([N+](=O)[O-])c1	.	7	62	.	.	.	19	.	-4	4.3
CCN(C(=O)c1cc(S(=O)(=O)N2CCCCC2)c[nH]1)c1ccc(OC)cc1	i	-1	-2	2	6	3.0	-4	-0.9	-5	-1.7
Cc1ccc(S(=O)(=O)Nc2cc(C(=O)NCCN3CCCC3)ccc2N2CCCCC2)cc1	.	29	3	.	.	.	-9	.	6	1.9
CCOC(=O)N1CCN(CC(O)COC(CC)c2ccccc2)CC1 (stereo not given)	.	7	-2	.	.	.	-3	.	-30	0.2
S=C(N/N=C/c1ccccc1Cl)Nc1cccc(Cl)c1Cl	i	-4	-3	13	12	3.7	52	0.8	5	2.7
C=CCNC(=O)c1ccc2c(c1)nnn2C	.	-8	1	.	.	.	0	.	.	0.0
Cc1cc(N/C(=N/S(=O)(=O)c2cc(F)ccc2F)c2ccccc2)n(-c2ccccc2)n1	i	10	-5	-2	11	-0.6	3	3.5	-2	-2.7
COc1ccccc1N1CSC2=C(C#N)C(c3ccc(SC)cc3)CC(=O)N2C1 (stereo not given)	i	2	2	-6	1	1.6	-10	1.8	.	13
CCCc1cc(C(=O)Nc2cc(Br)ccc2O)no1	i	-8	1	-2	-2	-0.2	-4	4.2	.	-4.8
CC1Cc2cc(/C(O)=C3/C(=O)C(=O)N(Cc4ccncc4)C3c3ccc(N(C)C)cc3)ccc2O1 (stereo not given)	i	9	-3	2	8	0.2	-12	2.7	60	22*
COc1cc(OC)c(-c2nc3ccccc3s2)cc1OC	.	8	41	11	16	0.7	12	-1.1	-15	-2.0
O=C1c2cccc3c(N4CCCCC4)ccc(c23)C(=O)N1c1ccccn1	.	9	2	.	.	.	4	.	-20	-158
CCOCCCN(C)C1CCN(C(=O)c2oc3ccccc3c2NC(=O)COc2ccc(F)cc2)CC1	i	-1	4	2	8	-2.0	-1	4.4	-3	6.5
Cc1ccc(C2(c3ccccc3)NC(=O)N(CC(=O)NC3(C#N)CCCC3)C2=O)cc1C (stereo not given)	i	.	.	-28*	-22*	0.9*	-1	1.4	-1	.
COc1ccccc1CN1CCNC(=O)C1CC(=O)NCCc1cnccn1 (stereo not given)	i	-4	9	12	3	-0.6	0	-0.1	-4	-2.4
CCOc1ccccc1N1CCN(C(=O)c2c(C)noc2C)CC1	.	-1	-6	.	.	.	-7	.	29	-1.4
COC(=O)Sc1nc(N2CCOCC2)c2c(c1C#N)CC(C)(C)OC2	.	-5	-3	.	.	.	-11	.	-17	-2.0
COC(=O)C(Cc1ccccc1)NC(=O)c1ccc(NS(=O)(=O)c2ccc3[nH]c(=O)[nH]c3c2)cc1 (stereo not given)	i	.	.	9	1	2.0	2	2.1	7	.

Given with two lines to a compound: 5 of the compounds above
Results follow in this order: FGF22 binding, T cruzi inh, Calb FLC, rRNA inh HTS, rRNA inh HTS OD600, rRNA inh HTS RFP, Beta cell apopt, AF4-AF9 inh, ALR inh, RanGTP-Imp inh
COC(=O)C(Cc1ccccc1)NC(=O)c1ccc(NS(=O)(=O)c2ccc3[nH]c(=O)[nH]c3c2)cc1 (stereo not given)
→ i, ., ., 9, 1, 2.0, 2, 2.1, 7, .
CCOC(=O)N1CCN(CC(O)COC(CC)c2ccccc2)CC1 (stereo not given)
→ ., 7, -2, ., ., ., -3, ., -30, 0.2
COc1cccc(N2CC(C)Cn3c2nc2c3c(=O)[nH]c(=O)n2C)c1 (stereo not given)
→ i, -8, -1, 4, 5, 0.0, -19, 0.2, 8, 3.1
COc1cc(OC)c(-c2nc3ccccc3s2)cc1OC
→ ., 8, 41, 11, 16, 0.7, 12, -1.1, -15, -2.0
CCN(C(=O)c1cc(S(=O)(=O)N2CCCCC2)c[nH]1)c1ccc(OC)cc1
→ i, -1, -2, 2, 6, 3.0, -4, -0.9, -5, -1.7

Carrying on:
SMILES	FGF22 binding	T cruzi inh	Calb FLC	rRNA inh HTS	rRNA inh HTS OD600	rRNA inh HTS RFP	Beta cell apopt	AF4-AF9 inh	ALR inh	RanGTP-Imp inh
COc1ccc(-c2nc3n(c(=O)c2C#N)CCS3)cc1	i	-15	47	-6	8	0.4	-12	-1.4	-11	2.7
CCOC(=O)c1c(-c2ccc(C)o2)csc1NC(=O)CN(C)CC(=O)Nc1ccc(C)cc1	.	23	-25	.	.	.	3	.	3	5.6
Cn1c(=O)c2cn(-c3ccccc3)cc2n(C)c1=O	.	-13	-3	.	.	.	-1	.	-2	?
COc1ccc(NC(=O)C2CCCN2C(=O)Nc2cccc(F)c2)cc1 (stereo not given)	i	-5	-19	-40	-49	-20	-6	5.0	-7	0.2
Cc1nc2c(C(=O)NCCc3ccccc3Cl)c[nH]n2c(=O)c1Cl	.	-18	15	.	.	.	-9	.	99*	-1.0
CN1C(=O)SC(Nc2cccc3ccccc23)C1=O (stereo not given)	.	-14	3	.	.	.	-4	.	90*	3.9
Cn1cnnc1SCC(=O)Nc1ccc2ccccc2c1	i	.	.	3	-4	-1.3	-6	-1.1	-8	.
O=C(NCC1CCCO1)C1CCC(=O)N1Cc1ccccc1Cl (stereo not given)	.	-3	-9	15	13	2.1	-3	.	-15	?
CC(=O)c1ccc(NC(=O)CSc2ccc(-c3ccc(-n4cccn4)cc3)nn2)cc1	i	4	-1	13	15	-1.5	.	-21	-2	-0.2
CCc1ccc2c(CN(C)Cc3ccccc3OC)cc(=O)oc2c1	i	8	4	-32	-30	-5.5	-3	-0.7	.	-0.7
CCOC(=O)c1c(NC(=O)C2=C(C)NC(=S)NC2c2ccc(C)cc2)sc(C)c1C (stereo not given)	i	39	14	5	11	-5.0	2	3.7	-1	2.0
CC(=O)NCC(=O)OCC(=O)c1ccc(C)c(C)c1	i	-10	-11	13	7	6.1	-6	6.7	-2	0.8
O=C(Nc1ccccn1)c1ccc(Cl)c(S(=O)(=O)N2CCOCC2)c1	i	6	1	.	.	.	4	-0.2	-10	0.6
Oc1ccc(/C=N/N2CCCCC2)c(O)c1	i	-3	4	1	11	-0.7	7	3.9	98*	0.2
CCO/C=C1/C(=O)N(CC)c2ccccc21	.	6	-7	.	.	.	-5	.	6	-1.6
CN(C)S(=O)(=O)c1ccc(Cl)c(NC(=O)COC(=O)/C=C/c2cnc3ccccc3n2)c1	i	-14	-7	10	0	3.8	-4	-35	.	6.4
CC1CN(C(=O)C(C)N2CCN(c3cccc(Cl)c3)CC2)CC(C)O1 (stereo not given)	i	6	-19	0	-10	-2.0	.	0.1	88*	?
COc1cc(CC(NC(C)=O)C(=O)NC2CCN(c3nc(C)cc(C)c3C#N)CC2)cc(OC)c1 (stereo not given)	.	-5	-2	.	.	.	-10	.	-7	3.3
CC(C)Cc1nnc(NC(=O)CC(C)c2ccccc2)s1 (stereo not given)	i	1	-3	4	10	0.4	-3	1.3	-2	-5.0
COc1ccc(OC)c(S(=O)(=O)N2CCC(C(=O)Nc3ccc(C)c(C)c3)CC2)c1	.	9	27	.	.	.	4	.	-5	2.1
Cc1ccccc1/C=C/c1cc[n+](C)cc1	i	-3	-6	10	12	1.1	1	1.7	-18	1.3
COC(=O)c1sccc1NC(=S)N1CCN(c2cc(C)ccc2C)CC1	.	15	3	.	.	.	-1	.	2	-7.2
CC(C)N(c1ccccc1)c1ccc(NC(=O)C2CCCO2)cc1 (stereo not given)	.	-7	-3	.	.	.	3	.	?	8.0
Cc1cc(NC(=O)COC(=O)c2cccc(O)c2)no1	i	-4	-4	10	17	4.2	-3	0.2	-4	-3.8

5 compounds already listed, arranged by the value under rRNA inh HTS OD600, low to high.
SMILES | rRNA inh HTS OD600
COc1ccc(NC(=O)C2CCCN2C(=O)Nc2cccc(F)c2)cc1 (stereo not given) | -49
Cn1cnnc1SCC(=O)Nc1ccc2ccccc2c1 | -4
CC(=O)NCC(=O)OCC(=O)c1ccc(C)c(C)c1 | 7
CC(C)Cc1nnc(NC(=O)CC(C)c2ccccc2)s1 (stereo not given) | 10
Cc1cc(NC(=O)COC(=O)c2cccc(O)c2)no1 | 17

Individual results from the list.
Under Calb FLC, Cc1cc(N/C(=N/S(=O)(=O)c2cc(F)ccc2F)c2ccccc2)n(-c2ccccc2)n1 is listed with -5
Under rRNA inh HTS OD600, COC(=O)C(Cc1ccccc1)NC(=O)c1ccc(NS(=O)(=O)c2ccc3[nH]c(=O)[nH]c3c2)cc1 (stereo not given) is listed with 1

From PubChem
